ALR inh: inhibitors of human ALR sulfhydryl oxidase, primary screen, biochemical, H2O2 detection, HRP-luminol luminescence, single point; FAD-linked sulfhydryl oxidase ALR (Homo sapiens), P55789; purified ALR, DTT oxidation; 290,000 tested, 3.8% active; inhibition, % (concentration not given with the values);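 active means mean and each replicate at 75% or more; inconclusive means only one of the two met; inactive means neither met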;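 further: stock transfer was 7.5 nL into about 7.5 µL; 0% = neutral wells and 100% = wells with inactivated enzyme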
Target sequence (P55789 whole entry, looked up): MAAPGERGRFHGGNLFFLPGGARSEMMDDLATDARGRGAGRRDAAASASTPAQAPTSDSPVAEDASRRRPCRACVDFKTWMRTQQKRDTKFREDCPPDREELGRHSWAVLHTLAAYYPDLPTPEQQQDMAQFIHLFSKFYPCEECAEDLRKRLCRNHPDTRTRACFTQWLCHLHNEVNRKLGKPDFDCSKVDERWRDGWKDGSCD
A1 inh: caspase 3/7 activation in MEF A1-2A-BIM cells, primary screen, A1 inhibitor project, cell-based, luminescence, HTS. 330,000 tested, 0.066% active. caspase activation, % (test concentration not listed). Caspase-Glo 3/7 luminescence, 3 h; percent of clofoctol response, vehicle zero;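 active means over half of replicate activation scores above 10%, or exactly half above 10 with the replicate mean above 10; inconclusive means replicate mean below 10 yet half the replicates above 10; inactive means over half of replicates below 10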;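 further: wells of about 30 µL received 50 nL stock; many hits fall short of the cut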
LANA-H2A inh: blockers of LANA interaction with H2A/H2B – biochemical, FP readout, HTS, primary screen; Protein LANA1 (Human herpesvirus 8 type P (isolate GK18)), Q9QR71; cell-free LANA-H2A/H2B peptide, fluorescence polarization; inhibition, % (no concentration beside the values); 320,000 tested, 0.6% active; AID 2629, 2010; in the data active means inhibition mostly above about 10%, no sharp cut-off; inactive means mostly below about 6.7%;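 further: stock transfer was 7.5 nL into about 10 µL; 0% = median of vehicle wells and 100% = median of positive control wells; one replicate is shown; the record names a cut of 25% in any replicate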
B2AR ag: beta2AR agonists driving receptor internalization, primary screen, cell-based, FAP fluorogen, flow cytometry. Beta-2 adrenergic receptor (Homo sapiens), P07550. Am2.2-beta2AR cells; reference of the scale not given here. response, % (no concentration beside the values). 340,000 tested, 0.43% active;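 active means response above a set limit, near 3 SD of response in nonfluorescent compounds, cut at about 42% in these data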;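 further: stock transfer was 100 nL into about 11 µL; a reference agonist was the positive control; negative values mostly stem from fluorescent compounds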
Target sequence (P07550 whole entry, looked up): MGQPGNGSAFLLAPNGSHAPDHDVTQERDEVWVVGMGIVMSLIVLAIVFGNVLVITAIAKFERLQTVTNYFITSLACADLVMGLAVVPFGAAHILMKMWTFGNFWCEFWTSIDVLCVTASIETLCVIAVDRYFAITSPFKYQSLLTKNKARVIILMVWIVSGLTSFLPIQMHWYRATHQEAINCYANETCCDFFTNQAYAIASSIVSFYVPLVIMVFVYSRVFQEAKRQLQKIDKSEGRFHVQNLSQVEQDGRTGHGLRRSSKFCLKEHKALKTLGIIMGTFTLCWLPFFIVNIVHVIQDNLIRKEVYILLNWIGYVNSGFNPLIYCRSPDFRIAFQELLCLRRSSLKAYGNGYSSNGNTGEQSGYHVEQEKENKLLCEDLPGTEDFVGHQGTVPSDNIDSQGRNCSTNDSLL
T cruzi inh: inhibitors of intracellular T. cruzi growth, primary screen, luminescence, NIH3T3 host cells | T. cruzi beta-gal in NIH3T3, 90 h | 300,000 tested, 1.4% active | inhibition, % (test concentration not listed) | AID 1885, 2009;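 active means mean inhibition across valid replicates above about 55%, limit read from the data; inconclusive means mean below that limit but half or more replicates reach it; inactive means mean below it, under half of replicates reach it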;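 further: signal also drops with host cell toxicity which is not excluded here; 0% = plate median of DMSO wells and 100% = zero luminescence signal; higher percent means less beta-gal luminescence so fewer parasites; stock transfer was 50 nL into about 50 µL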
Beta apoptosis: inhibitors of cytokine-induced beta cell apoptosis, primary screen, luminescence | INS-1E cytokine-induced death, ATP luminescence, 48 h; percent of positive-control rescue, neutral wells zero | protection from apoptosis, % (concentration not given with the values) | 300,000 tested, 0.8% active;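 active means all replicates at 75% or more, or half of them and the mean; inconclusive means half reach 75% but not the mean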;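 further: 0% = cytokine-treated negative control wells and 100% = positive control rescue; higher means more ATP so stronger rescue from cytokine killing; wells of about 40 µL received 100 nL stock; the first replicate is given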
Calb FLC: C. albicans growth inhibition with fluconazole, primary screen, CaCi-2 strain, Alamar Blue fluorescence; C. albicans CaCi-2 (fluconazole-resistant clinical isolate) + fluconazole, 48 h; growth inhibition, % (test concentration not listed); 300,000 tested, 0.57% active;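 active means most replicates above 75%; inconclusive means exactly half above 75%; inactive means most below 75%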;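 further: all wells also contain fluconazole at 8 µg/ml as a sub-toxic cotreatment; 0% = median of DMSO wells and 100% = median of geldanamycin control wells; wells of about 8 µL received 7.5 nL stock; the first replicate is given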
rRNA inh HTS: reduced GFP signal of wild-type E. coli, primary screen, bacterial rRNA inhibitor project, GFP/RFP fluorescence, OD600, single point; E. coli WT GFP vs humanized-ribosome RFP mutants, 24 h; hits give low values; DMSO median 0, no signal -100; GFP signal change (wild-type ribosome), % (concentration not given with the values); 350,000 tested, 1.6% active;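 active means significant combined selectivity score with lowered wild-type GFP, culture density cut under 30%, mutant RFP and density less affected; inactive means any of these conditions unmet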; further: one replicate is shown; some compounds called inactive have numbers as strong as hits
rRNA inh HTS OD600: further read-out of rRNA inh HTS, marked with its call; OD600 change, %; measured here: OD600 growth;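 optical density of the mix in the first replicate; 0 = DMSO median and -100 = no signal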
rRNA inh HTS RFP: second read-out of rRNA inh HTS, no call of its own (marks repeat the call); RFP signal change, %; measured here: RFP humanized mutant strains;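 first replicate; 0 = DMSO median and -100 = no signal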
* = called active by the depositor; u = inconclusive; x = not tested or not shown. Only part of the results is shown; rates above refer to the full screens.

cpd	SMILES	ALR inh	A1 inh	LANA-H2A inh	B2AR ag	T cruzi inh	Beta apoptosis	Calb FLC	rRNA inh HTS	rRNA inh HTS OD600	rRNA inh HTS RFP
1	COc1ccc(C2C(C(=O)c3ccc(C)o3)=C(O)C(=O)N2c2cc(C)on2)cc1OC (stereo unspecified)	3	-0.1	-0.3	-1	-5	-6	-1	x	x	x
2	CCCCSc1nc(C)cc(NC(=S)Nc2ccc(OC)cc2)n1	-2	-0.2	-0.9	-15	12	-1	-6	x	x	x
3	O=C(CSc1nnc(Cc2cc(=O)[nH]c(=O)[nH]2)n1-c1ccc(Cl)cc1)NC1CCCC1	-4	-0.7	-1.0	0	x	-1	x	21	19	3.3
4	CCn1cc(C(=O)O)c(=O)c2cnc(N3CCN(C(=S)NC(=O)c4ccc(Cl)cc4Cl)CC3)nc21	x	0.5	0.6	5	-14	-1	31	-33	-58	-3.5
5	Cc1ccc(-c2nn(-c3ccccc3)cc2C(=O)N2CCOCC2)cc1	x	-0.1	0.3	-16	2	x	-11	x	x	x
6	Nn1c(Cc2ccccc2F)n[nH]c1=S	x	0.8	-3.4	-8	3	0	9	12	9	2.2
7	COc1cccc(C(=O)Nc2ccc(C3CC3(Cl)Cl)cc2)c1 (stereo unspecified)	x	-7.9	3.0	1	30	-8	-7	-9	-8	-3.0
8	COc1ccc(-c2nc3ncccc3n2O)cc1	x	-2.5	-2.5	9	-12	-1	-3	-7	-8	-1.3
9	COc1ccc(NC2CCCN(C(=O)CCn3cccn3)C2)cc1 (stereo unspecified)	99*	-0.4	-0.8	5	-1	-4	2	18	15	0.8
10	CCOc1ccccc1NC(=O)C1CCCN(S(=O)(=O)c2c(C)[nH]c(=O)[nH]c2=O)C1 (stereo unspecified)	-17	-0.2	-2.3	2	-9	-4	-4	x	x	x
11	C=CCNC(=O)COc1cc(C)ccc1C	-14	0.6	-4.8	2	-10	x	0	5	10	-0.6
12	Cc1cc(C)n(-c2ccc(C(=O)Nc3cccc([N+](=O)[O-])c3)cc2)n1	-3	-3.6	-6.7	9	-6	x	-9	27	19	4.3
13	CC(=O)Nc1ncc(Cc2cccc(Cl)c2Cl)s1	-12	0.4	5.9	-6	-16	1	8	23	14	4.0
14	O=C(COc1ncnc2ccccc12)NC1CCCCC1	16	-0.5	0.6	4	x	-5	x	-5	4	0.5
15	Cc1nc(N)c(Cc2ccc(Cl)cc2Cl)c(N)n1	-3	0.4	2.0	-1	-22	13	-9	-54	-54	-17

Three entries out of the list above, ordered by the value under rRNA inh HTS OD600, lowest first:
# | Compound | ALR inh | A1 inh | LANA-H2A inh | B2AR ag | rRNA inh HTS | rRNA inh HTS OD600 | rRNA inh HTS RFP
4 | CCn1cc(C(=O)O)c(=O)c2cnc(N3CCN(C(=S)NC(=O)c4ccc(Cl)cc4Cl)CC3)nc21 | x | 0.5 | 0.6 | 5 | -33 | -58 | -3.5
7 | COc1cccc(C(=O)Nc2ccc(C3CC3(Cl)Cl)cc2)c1 (stereo unspecified) | x | -7.9 | 3.0 | 1 | -9 | -8 | -3.0
3 | O=C(CSc1nnc(Cc2cc(=O)[nH]c(=O)[nH]2)n1-c1ccc(Cl)cc1)NC1CCCC1 | -4 | -0.7 | -1.0 | 0 | 21 | 19 | 3.3

Other results follow:
cpd	SMILES	ALR inh	A1 inh	LANA-H2A inh	B2AR ag	T cruzi inh	Beta apoptosis	Calb FLC	rRNA inh HTS	rRNA inh HTS OD600	rRNA inh HTS RFP
16	N#CC[C@H](Cc1ccccc1)N1CC[C@@H](O)CCC1=O	x	2.6	0.5	-5	3	-9	10	16	9	2.4
17	Cc1cc(C)c2c(N)c(C(=O)c3ccc(Cl)c(Cl)c3)sc2n1	-17	0.9	3.7	2	101*	11	-7	-3	13	0.0
18	Cc1ccc(S(=O)(=O)Nc2nc(-c3ccc(F)cc3)cs2)cc1	35	0.4	-2.2	3	u	0	48	-50	-49	-14
19	Cc1ccc(OCC(=O)N2CC(C)CC(C)C2)c([N+](=O)[O-])n1 (stereo unspecified)	-10	-0.9	3.6	-8	x	2	x	5	9	1.1
20	C/C(=C\c1ccccc1)CN1CCC(C(=O)N2CCCCC2)CC1	0	1.5	-1.8	-4	6	2	-3	x	x	x
21	CCOc1ccc(-c2cnc3n2CCCCC3)cc1	x	-0.3	0.5	0	16	7	0	5	2	5.0
22	COC(=O)[C@H](CC(C)C)NS(=O)(=O)N(Cc1ccccc1)[C@@H](CC(C)C)C(=O)OC	1	1.2	0.1	-4	x	-16	x	6	-1	-10
23	CN(CC(=O)Nc1ccccc1C(F)(F)F)C(=O)COc1ncnc2ccccc12	5	-0.1	2.5	2	1	-4	31	-2	3	-0.8
24	O=C(O)C1CCCN1S(=O)(=O)c1cccc(S(=O)(=O)N2CCCC2C(=O)O)c1 (stereo unspecified)	-3	-0.6	1.6	4	-16	0	-9	17	11	-0.5
25	Cc1ccc(C(=O)NCCc2ccc(S(=O)(=O)N3CCCC3)cc2)cc1	-3	-0.1	-1.9	0	12	-4	-11	-7	-2	0.4
26	Cc1ccc(C(=O)COC(=O)CCN2C(=O)C3C4C=CC(C5CC45)C3C2=O)cc1 (stereo unspecified)	0	0.7	-1.5	-2	-21	-1	-1	-2	-12	3.3
27	Cc1cc(C(=O)Nc2ccc3c(c2)CCC3)c2ccccc2n1	-15	0.5	8.8	-9	-15	0	0	x	x	x
28	Cc1cc(C)cc(OCC(=O)OCC(=O)Nc2cc(S(=O)(=O)N3CCOCC3)ccc2Cl)c1	4	0.5	0.4	-3	x	-3	x	-1	1	-2.4
29	COCCCN1C(=O)C(=O)/C(=C(/O)c2ccc(S(=O)(=O)N3CCCCC3)cc2)C1c1cccc(OC)c1 (stereo unspecified)	-11	-0.7	-6.3	1	-11	-10	11	5	12	1.4
30	NS(=O)(=O)c1ccc(NC(=O)COC(=O)c2c3c(nc4ccccc24)/C(=C\c2ccc4c(c2)OCO4)CCC3)cc1	-36	-0.2	4.3	0	x	-2	x	-4	-18	-5.8

Continuation:
cpd	SMILES	ALR inh	A1 inh	LANA-H2A inh	B2AR ag	T cruzi inh	Beta apoptosis	Calb FLC	rRNA inh HTS	rRNA inh HTS OD600	rRNA inh HTS RFP
31	CC(=O)c1cc(F)ccc1OCC(=O)N1CCCc2ccccc21	4	0.1	2.6	-5	-8	3	-5	6	-8	0.8
32	C=CCN=C1SCC(=O)N1S(=O)(=O)c1ccc(C)cc1	1	2.4	1.6	1	-11	-2	1	x	x	x
33	CCn1c(C2CCN(S(=O)(=O)c3ccc(OC)cc3)CC2)n[nH]c1=S	x	0.1	-1.5	12	4	2	2	-5	2	1.2
34	O=C(Nc1ccc(S(=O)(=O)N2CCCCCC2)cc1)c1[nH]ncc1[N+](=O)[O-]	59	-5.9	1.9	18	-9	-11	4	-40*	-29*	-6.3*
35	O=C(CN(CC1CCCO1)C(=O)CNS(=O)(=O)c1ccc(F)cc1)NCc1ccc(F)cc1 (stereo unspecified)	-1	1.2	-3.9	-1	0	-7	-8	-1	5	-2.2
36	O=C(O)c1ccc(-c2nc(-c3ccc(Cl)cc3)cs2)cc1	x	x	x	5	-6	x	91*	-9	-11	-6.3
37	C=CCOn1c(=O)c(-c2cccs2)[n+]([O-])c2ccccc21	55	-1.0	-0.1	-2	19	0	7	x	x	x
38	CN1C(=O)C2(C(C#N)=C(N)N(c3ccc(Cl)cc3)C3=C2C(=O)CC(C)(C)C3)c2ccccc21 (stereo unspecified)	20	0.1	-5.6	1	-6	8	-16	x	x	x
39	CCCc1nn(CCc2ccccn2)c(N)c1CC	u	-0.5	0.5	1	-1	-2	-3	x	x	x
40	O=C(/C=C/Sc1ccc(C(F)(F)F)cn1)c1ccccc1	29	0.4	0.4	-2	-2	-28	4	5	5	-2.0
41	CC(=O)c1cccc(NS(=O)(=O)c2c(C)n[nH]c2C)c1	-10	1.0	-8.1	1	-16	-1	-3	x	x	x
42	CC1(C)CC(=O)C2=C(C1)N(c1ccccc1)C(N)=C(C#N)C2c1ccccc1 (stereo unspecified)	17	0.4	-10	7	11	-11	37	x	x	x
43	CCOc1ccc(/C=N/n2c(C)nnc2C)cc1OC	-12	0.1	2.2	2	-2	-5	-37	16	17	1.2
44	OCCNc1nc(Nc2ccc(Cl)c(Cl)c2)nc2ccccc12	20	-1.5	-3.4	1	64*	90*	33	-9	-28	-4.5
45	O=C(CSc1cccc[n+]1[O-])Nc1cc2c(cc1Cl)C(=O)c1ccccc1C2=O	x	-2.2	9.2	23	4	-7	4	x	x	x

(more compounds)
cpd	SMILES	ALR inh	A1 inh	LANA-H2A inh	B2AR ag	T cruzi inh	Beta apoptosis	Calb FLC	rRNA inh HTS	rRNA inh HTS OD600	rRNA inh HTS RFP
46	CC(C)N(C(=O)CSc1ccc(S(=O)(=O)N2CCCCC2)cn1)c1ccccc1	x	0.3	2.4	-2	x	7	x	-14	-39	-5.5
47	Cc1ccc(S(=O)(=O)N2CCN(C3CC(=O)N(CCc4ccccc4)C3=O)CC2)cc1C (stereo unspecified)	-2	-0.5	-7.5	3	11	-7	22	x	x	x
48	Cc1[nH]n(-c2ccccc2)c(=O)c1C(=O)c1ccccc1	-29	-0.5	-0.9	4	-10	-5	x	-29	-24	-7.8
49	COc1cccc(COc2ncnc3sccc23)c1	2	0.7	-0.2	-2	7	-7	-4	-21	20	4.1

Retrieved by compound from above:
cpd	SMILES	ALR inh	A1 inh	LANA-H2A inh	B2AR ag	T cruzi inh	Beta apoptosis	Calb FLC	rRNA inh HTS	rRNA inh HTS OD600	rRNA inh HTS RFP
49	COc1cccc(COc2ncnc3sccc23)c1	2	0.7	-0.2	-2	7	-7	-4	-21	20	4.1
48	Cc1[nH]n(-c2ccccc2)c(=O)c1C(=O)c1ccccc1	-29	-0.5	-0.9	4	-10	-5	x	-29	-24	-7.8
47	Cc1ccc(S(=O)(=O)N2CCN(C3CC(=O)N(CCc4ccccc4)C3=O)CC2)cc1C (stereo unspecified)	-2	-0.5	-7.5	3	11	-7	22	x	x	x

Screening results (PubChem)
